# Calb biofilm kill: clotrimazole potentiators killing C. albicans biofilm, primary screen, 4-compound mixtures; inhibition, % at 7.6 µM; C. albicans biofilm persisters + clotrimazole, fluorescence viability; primary screen in compound mixtures of four per well; 0.02% of 120,000 active; AID 1242, 2008;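 active means inhibition above 30.3% in the primary screen of four-compound pools, then above 30% when the compound was retested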;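 further: compounds exposed to preformed 24 h biofilms for 48 h; the number belongs to the whole pool; some results filed as inactive read as strong as hits; inactives centre near 12; 0% = biofilm with clotrimazole alone and 100% = kill control; retested singly at about 60 µM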
#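 System: C. albicans CAF4-2 wild-type biofilms; Medium: RPMI/MOPS medium, pH 7.0; Reagent: Clotrimazole, 50 µg/mL; Times: biofilm formation 24 h, compound exposure 48 h, 37 °C; Detection: 2-h Alamar Blue fluorescence, 535/590 nm excitation/emission; Evaluation: percent inhibition of biofilm viability.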
# Starred values were filed as active, the others as inactive; & = joins results of further samples. Some of the compounds tested; the hit share may differ from the screen's.
# The opening 4 records, to show the layout:
SMILES,Calb biofilm kill
OC1/C(=C/c2ccc(Cl)cc2Cl)N2CCC1CC2 (stereo not given),11
CC(C)Nc1nc(Cl)nc(NC(C)C)n1,20
O[C@H]1[C@H](O)[C@@H](O)CN2CC[C@H](O)[C@H]12,15
O=C(c1ccc(Br)cc1)C12CN3CN(CN(C3)C1)C2,15

# The listing, previewed entries included:
SMILES,Calb biofilm kill
OC1/C(=C/c2ccc(Cl)cc2Cl)N2CCC1CC2 (stereo not given),11
CC(C)Nc1nc(Cl)nc(NC(C)C)n1,20
O[C@H]1[C@H](O)[C@@H](O)CN2CC[C@H](O)[C@H]12,15
O=C(c1ccc(Br)cc1)C12CN3CN(CN(C3)C1)C2,15
CC1CCCCN1Cc1c[nH]c2ccccc12 (stereo not given),3
CC(C)C(=O)NC(Oc1ccccc1Cl)C(Cl)(Cl)Cl (stereo not given),23
O=c1[nH]c(=O)n(-c2cccc3ccccc23)c(O)c1/C=N/N1CCCCCC1,21
CCn1c(O)c(C=NCCN2CCOCC2)c(=O)[nH]c1=S,25
Cc1c(C(=O)N2CCC3(CC2)OCCO3)sc2ncnc(N3CCc4ccccc4C3)c12,15
CCOC(=O)[C@]1(C#N)[C@@H]2C=CC(C(N)=O)=CN2[C@@H](C(N)=O)[C@@H]1c1ccc(F)cc1,4
Cn1cc(C(=O)N2CCOCC2)c2ccccc21,5
O=C1OCc2cc(N=Nc3c(O)[nH]c(=O)[nH]c3=O)ccc21,18

# Arranged by SMILES length (low to high): part of the list above
SMILES,Calb biofilm kill
Cn1cc(C(=O)N2CCOCC2)c2ccccc21,5
OC1/C(=C/c2ccc(Cl)cc2Cl)N2CCC1CC2 (stereo not given),11
O=c1[nH]c(=O)n(-c2cccc3ccccc23)c(O)c1/C=N/N1CCCCCC1,21

# New compounds follow.
SMILES,Calb biofilm kill
CNCC(O)c1ccc(O)cc1 (stereo not given),13
CCN1CC2([N+](=O)[O-])CC=C(Cl)C([N+](=O)[O-])(C1)C2 (stereo not given),3
O=c1[nH]c(=S)n(C2CC2)c(O)c1C=NCCc1ccccc1,20
CSc1ccc(CNC(C)C(O)c2ccccc2)cc1 (stereo not given),-1
N=C1SCC(=O)N1Cc1ccccc1,15
Cc1nn(Cc2ccccc2)c(Cl)c1C(=O)OCC(=O)N1CCCC1,15
O=C(N/N=C/c1c(O)n(CCC2=CCCCC2)c(=O)[nH]c1=O)c1ccccc1,8
CCc1c(C)nc(N)nc1N1N=C1SC(C(C)=O)C(C)=O,16
CC(C)c1ccc(-n2c(O)c(/C=N/N3CCOCC3)c(=O)[nH]c2=S)cc1,25
Nc1ccc([As](=O)(O)O)cc1,7
CCN(CC)CC(=O)Nc1ccc(Cl)cc1C(=O)c1ccccc1,19
CC/C(=N\N1CCCCCC1)c1c(O)n(-c2ccc(C)cc2)c(=O)[nH]c1=O,24

# Two entries from above, field by field.
> CC(C)C(=O)NC(Oc1ccccc1Cl)C(Cl)(Cl)Cl (stereo not given)
  Calb biofilm kill: 23
> O=c1[nH]c(=O)n(-c2cccc3ccccc23)c(O)c1/C=N/N1CCCCCC1
  Calb biofilm kill: 21

# Next section.
SMILES,Calb biofilm kill
Cc1ccccc1-n1c(O)c(/C=N/NC(=O)c2ccccc2O)c(=O)[nH]c1=S,29
CCCCn1c(O)c(C(C)=NCCc2c[nH]c3ccccc23)c(=O)[nH]c1=O,24
O=c1c2ccccc2[nH]c(=S)n1-c1ccc2c(c1)OCCO2,25
CC1CN(c2ccc([N+](=O)[O-])c(N3CCCCC3)c2)CCN1 (stereo not given),3
Cc1c(N=Cc2c(O)n(Cc3ccccc3)c(=O)[nH]c2=O)c(=O)n(-c2ccccc2)n1C,16
CN1CCN(/N=C/c2c[nH]c3ccccc23)CC1,6
COc1ccc(NC(=S)NC(NC(=O)CF)C(Cl)(Cl)Cl)c([N+](=O)[O-])c1 (stereo not given),0
Cc1ccc(-n2c(O)c(/C=N/Nc3ccccc3)c(=O)[nH]c2=O)cc1C,25
NC(CC(=O)O)C1CCCCC1 (stereo not given),11
COc1ccc2c(c1O)[C@]13CCN(C)[C@H](C2)[C@@H]1CCC(=O)C3,10
c1cc(CCN2CCCC2)ccn1,16
O=CC(Cl)P(=O)(N1CCOCC1)N1CCOCC1 (stereo not given),17
COc1cccc(N2C(=O)NC(=O)/C(=C/c3ccc4c5c(cccc35)CC4)C2=O)c1,19
COc1cc(/C=C2\C(=O)NC(=O)N(CCc3ccc(F)cc3)C2=O)ccc1O,14
CCOc1cc(/C=C2\C(=O)NC(=O)N(CCc3ccc(F)cc3)C2=O)ccc1O,26
Fc1ccccc1CNC1CN2CCC1CC2 (stereo not given),15
CN1CCN(c2ccc(/C=C3\C(=O)NC(=S)N(c4cccc(Br)c4)C3=O)o2)CC1,-5
C[C@H]1OC[C@@H](C[N+](C)(C)C)O1,16
Fc1ccc(Cn2nnnc2C(c2ccc(F)cc2)N2CC=C(c3ccc(F)cc3)CC2)cc1 (stereo not given),16
COc1ccc(/C=C/C(=O)c2c(O)n(CCC3=CCCCC3)c(=O)[nH]c2=O)cc1,9
Cc1ccsc1C(=O)C1CCCN(Cc2cnc(N(C)C)s2)C1 (stereo not given),12
O=C(Nc1nccs1)c1c(O)c2c(n(Cc3ccco3)c1=O)CCCC2,11
O=C1NC(c2cc3ccccc3nc2Cl)Nc2ccccc21 (stereo not given),20
CNC(=O)O/N=C/c1nn(C(=O)C(C)(C)C)cc1Br,14
CN(C/N=C(\N)N[N+](=O)[O-])S(=O)(=O)c1ccccc1,-1
CN(C)C(=O)Oc1ccnc2cc(Cl)ccc12,1
CCCCCCN1CCN(c2ccc(Cl)cc2)CC1,10
O=c1[nH]c(=S)n(C2CC2)c(O)c1C=Nc1ccc2c(c1)OCO2,27
CCc1ccc(C(=O)C23CN4CN(CN(C4)C2)C3)cc1,13
O=c1[nH]c(=S)n(C2CC2)c(O)c1C=NCC1CCCO1 (stereo not given),26
N#CCCn1cc(C(=O)Nc2ccc(F)cc2)c(-c2ccc([N+](=O)[O-])cc2)n1,14
COc1ccc(/C=C/C2=CCN(C)CC2)cc1,1
Cc1ccc(N)c(C(=O)c2ccc(Br)cc2)c1,10
CCC1C2Cn3c(nc4ccccc43)C1N(C)O2 (stereo not given),9
N#CC(C#N)=Cc1ccc(-c2ccccc2)o1,11
CC1(C)OC(c2ccccc2)=C/C(=C/C=C2C(=O)NC(=S)NC2=O)O1,5
Cc1ccc(OCCn2cccc2/C=C2/C(=O)NC(=O)N(Cc3ccco3)C2=O)cc1,8
CCN1CCN(c2ccc(N)cc2C)CC1,8
CCC(=NCc1cccnc1)c1c(O)n(-c2ccccc2)c(=O)[nH]c1=O,14
Fc1ccccc1CCNCc1cccc2ccccc12,19
CC/C(=N\NC(N)=O)c1c(O)[nH]c(=O)[nH]c1=O,13
N=C1c2ccccc2CN1NC(=O)c1ccc(Br)cc1,-1
COc1ccc(C(=O)CN2CCCCC2)cc1,15
O=C(NC(=O)c1c(F)cccc1F)Nc1cc(Cl)c(F)c(Cl)c1F,6
C=CCN1C(=O)/C(=C/c2cccs2)C(=O)NC1=S,14
CC(=O)NNC(=O)CN1C(=O)CN=C(c2ccccc2)c2cc(Br)ccc21,1
Cc1ccc(C)c(OCC(=O)N2CCN(Cc3ccc4c(c3)OCO4)CC2)c1,1
CCc1cccc(C)c1NC(=S)N1CC2CC(C1)c1cccc(=O)n1C2 (stereo not given),17
COc1ccc(C[C@@H]2c3cc(O)c(OC)cc3CCN2C)cc1O,17
CCN(CC)CCNCc1nc2ccccc2c(=O)n1-c1ccc(F)cc1,25
O=c1[nH]cc(COCC(F)(F)C(F)(F)C(F)(F)F)c(=O)[nH]1,-14
CCN(CC)c1ccc(CNCCc2ccccc2F)cc1,19
O=C1NC(=O)N(Cc2ccc(F)cc2)C(=O)/C1=C\c1ccc(N2CCCC2)cc1,22
O=[N+]([O-])c1cc2c(cc1CNCCc1ccc3c(c1)OCO3)OCO2,12
O=C(C(=O)N1CCOCC1)c1cn(Cc2c(F)cccc2Cl)c2ccccc12,15
CC1=C(C(=O)O)N2C(=O)C(NC(=O)Cc3ccccc3)C2SC1 (stereo not given),16
COC1=CCC2([N+](=O)[O-])CN(C)CC1([N+](=O)[O-])C2 (stereo not given),8
c1ccc2c(CN3CCCCC3)c[nH]c2c1,12
COCCCn1c(N)c(C(=O)Nc2ccccc2)c2nc3ccccc3nc21,16
CCN1CCC2(CC1)NC(=O)c1ccccc1O2,12

# The list continues.
SMILES,Calb biofilm kill
O=c1[nH]c(=S)n(C2CC2)c(O)c1/C=N/N1CCOCC1,22
COC(=O)[C@@]1(Cc2ccc(F)cc2)[C@H]2c3cc(C(=O)N(C)C)[nH]c3C[C@H]2CN1C(=O)c1ccccc1,6
O=Cc1c(C(=O)O)n(Cc2ccc(Cl)cc2)c2ccccc12,3
C#CC(CC)(CC)NC(=O)Nc1ccc(OCC)cc1,12
CC(=O)c1c(C)n(C2CCCCC2)c2ccc(O)cc12,7
Cc1cccc(CN2CCCC(C(=O)c3ccc(C(F)(F)F)cc3)C2)n1 (stereo not given),17
Cn1cnc([N+](=O)[O-])c1Sc1ccc([N+](=O)[O-])cc1,7
O=C(c1ccccc1)C1CCCN(Cc2nc(-c3cnccn3)no2)C1 (stereo not given),14
Cc1ccc(-n2c(O)c(/C=C/C=Nc3ccccc3)c(=O)[nH]c2=O)cc1,14
CC1=CC(=Cc2sc3ccccc3[n+]2C)C=C(C)O1,18
CCN(CC)P(=O)(/C=C(\Cl)c1ccccc1)/C=C(\Cl)c1ccccc1,10
O=C(CN1CCCC1)Nc1ccc(Cl)cc1C(=O)c1ccccc1,13
O=[N+]([O-])c1cccc(C2N3CCCN23)c1 (stereo not given),2
CCCc1nc2ccc(Br)cc2c(=O)n1-c1ccc([N+](=O)[O-])c(C(F)(F)F)c1,11
Cc1cc(C)c(Cn2c(C(=O)O)c(C=O)c3ccccc32)c(C)c1,-9
Clc1ccc(CSC(Cn2ccnc2)c2ccc(Cl)cc2Cl)cc1 (stereo not given),18
CC(C)(C)N1C(=O)NC(=O)/C(=C\c2ccc3c(c2)CCN3CCCCl)C1=O,29
Cc1ccc(N2C(=O)NC(=O)/C(=C/c3cnn(-c4ccc(C)cc4)c3)C2=O)cc1,11
Cc1ccccc1-n1c(O)c(C(c2ccncc2)c2c(O)n(-c3ccccc3C)c(=O)[nH]c2=O)c(=O)[nH]c1=O,16&20
CCc1ccc(NP(=O)(Oc2ccccc2F)Oc2ccccc2F)cc1,9
CN(C)/C=C/C(=O)C(Cl)(Cl)Cl,11
CCN1C(=O)C(=C2C=C(C)OC(C)=C2)C(=O)N(CC)C1=S,10
O=C(Nc1ccncc1)c1cccn(Cc2ccccc2)c1=O,12
CCc1ccc(NC(=O)CN2CC(c3ccccc3)CC2=O)cc1 (stereo not given),9
CC(c1ccccc1)n1cncc1C(=O)O (stereo not given),11
CC(CCc1ccccc1)NC(C)C(O)c1ccc(O)cc1 (stereo not given),9
C=CCNC(=S)Nc1ccc(OC(=O)Nc2ccc(Cl)c(Cl)c2)cc1,6
Cc1onc(-c2c(Cl)cccc2Cl)c1/C(N)=N/OC(=O)N(C)C,24
O=C1NC(=O)N(Cc2ccco2)C(=O)/C1=C\c1ccc(-c2ccc(F)cc2)o1,13
CCOP(=O)(OCC)C(NC(=O)c1cccc2ccccc12)C(Cl)(Cl)Cl (stereo not given),14
CN1CCN(CCOC2c3ccccc3CSc3ccc(Cl)cc32)CC1 (stereo not given),12
CCc1ccc(NC(=O)C(C)OC(=O)c2c(C)nn(Cc3ccccc3)c2Cl)cc1 (stereo not given),-4
O=C(c1cccnc1)C1CCCN(Cc2nc(-c3cnccn3)no2)C1 (stereo not given),12
CCCCCOc1ccc(C)cc1CN(CCCl)CCCl,0
Oc1ccc2c3c1O[C@H]1c4oc5ccccc5c4C[C@@]4(O)[C@@H](C2)N(CC2CC2)CC[C@]314,10
CC(=NCc1ccc2c(c1)OCO2)c1c(O)n(Cc2ccccc2)c(=O)[nH]c1=O,28
CSc1ccc(C(=O)C2CCCN(Cc3cc4ccccc4[nH]3)C2)cc1 (stereo not given),11
Clc1ccc(COC(Cn2ccnc2)c2ccc(Cl)cc2Cl)c(Cl)c1 (stereo not given),12
NNC(=O)c1ccc(Cl)cc1,15
O=C(N/N=C/C1C(=O)NC(=S)N(c2ccccc2)C1=O)c1cc(Br)c(O)c(Br)c1 (stereo not given),5
CCC(CO)NC(=O)C1C=C2c3cccc4[nH]cc(c34)CC2N(C)C1 (stereo not given),17
COc1cc2c(cc1OC)CN(c1ccc([N+](=O)[O-])c(C(F)(F)F)c1)CC2,4
O=c1[nH]c(=S)n(C2CCCCC2)c(O)c1/C=N/N1CCOCC1,11
CCOP(=O)(OCC)C(Cc1ccccc1)NC(C)=O (stereo not given),27
O=[N+]([O-])c1cccc2c([As](=O)(O)O)cccc12,17
NC(=S)c1cn(C2OC(CO)C(O)C2O)c2ncnc(N)c12 (stereo not given),36
Cn1c(O)c(C=NCCN2CCOCC2)c(=O)[nH]c1=S,16
Nc1ccc(N=Nc2ccccc2)cc1,11
CCOc1ccc(N2C(=O)NC(=O)/C(=C\c3ccc(N4CCCCC4)o3)C2=O)cc1,14
Cn1nnc(CC[N+](C)(C)C)n1,25
CC(C)n1c(O)c(C=NCc2ccccc2)c(=O)[nH]c1=S,12
COc1ccc(Cn2c(O)c(/C=N/NC(=O)c3ccccc3O)c(=O)[nH]c2=O)cc1,12

# A section taken from the entries so far, as a working copy:
SMILES,Calb biofilm kill
CN1CCN(/N=C/c2c[nH]c3ccccc23)CC1,6
COc1ccc(NC(=S)NC(NC(=O)CF)C(Cl)(Cl)Cl)c([N+](=O)[O-])c1 (stereo not given),0
Cc1ccc(-n2c(O)c(/C=N/Nc3ccccc3)c(=O)[nH]c2=O)cc1C,25
NC(CC(=O)O)C1CCCCC1 (stereo not given),11

# Source: PubChem (PCMD)
